Rango dissoc inh: prevents RanGTP from dissociating the Rango-importin beta complex | 340,000 compounds, 0.071% hits | Potency, µM (titrated, usually from 46.1 µM), inactives show at the highest dose activity change, negative = inhibition | Biochemical FRET Rango-importin beta, RanGTP-induced dissociation; active means falling FRET ratio curve, often poorly fitted, with flat reads before Ran was added; inconclusive means other falling curves, or compound fluorescence or quenching; inactive means flat or rising ratio curve;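 further: potency means the concentration at half of the fitted maximal effect; % of control where 0% means no effect; nearly all actives have a fitted effect of over 45% in size; -100% = wells without RanGTP and RCC1; the record marks most hits as doubtful in a second field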
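Two FRET readings bracket the reaction: one 5 min after compound meets Rango–importin beta, another 45 min after RanGTP-RCC1 (0.6 uM Ran, 0.2 uM RCC1, 2 mM GTP) is added. Only the second defines inhibition.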
GLA inh pH 4.5: blocks human alpha-galactosidase A at pH 4.5; purified enzyme, 4-MU-alpha-Gal fluorescence, pH 4.5; activity change, negative = inhibition, % at 105 µM; 230,000 tested, under 10 active; inconclusive = small, poorly fitted or top-dose-only inhibition, or a rising curve; inactive = flat fitted curve, though single readings scatter; no compound was filed as active;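 further: 0% = full activity with enzyme and -100% = basal without enzyme; dose as in the result columns while the protocol names 77 µM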
Rango complex inh: prevents formation of the Rango-importin beta complex | Q14974 | AID 540263 | Potency, µM (titrated, usually from 92.2 µM), inactives show top-dose inhibition of complex formation | 340,000 compounds, 0.031% hits | Rango CFP/YFP FRET sensor + importin beta, 45 min; active = rising FRET ratio curve, often small or poorly fitted; inconclusive = mostly compound fluorescence or quenching in the first reads; inactive = flat curves in all reads;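 further: potency means the concentration at half of the fitted maximal effect; 0% = DMSO wells and 100% = buffer wells lacking importin beta; nearly all actives have a fitted effect of over 15% in size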
Target sequence (Q14974 whole entry, looked up): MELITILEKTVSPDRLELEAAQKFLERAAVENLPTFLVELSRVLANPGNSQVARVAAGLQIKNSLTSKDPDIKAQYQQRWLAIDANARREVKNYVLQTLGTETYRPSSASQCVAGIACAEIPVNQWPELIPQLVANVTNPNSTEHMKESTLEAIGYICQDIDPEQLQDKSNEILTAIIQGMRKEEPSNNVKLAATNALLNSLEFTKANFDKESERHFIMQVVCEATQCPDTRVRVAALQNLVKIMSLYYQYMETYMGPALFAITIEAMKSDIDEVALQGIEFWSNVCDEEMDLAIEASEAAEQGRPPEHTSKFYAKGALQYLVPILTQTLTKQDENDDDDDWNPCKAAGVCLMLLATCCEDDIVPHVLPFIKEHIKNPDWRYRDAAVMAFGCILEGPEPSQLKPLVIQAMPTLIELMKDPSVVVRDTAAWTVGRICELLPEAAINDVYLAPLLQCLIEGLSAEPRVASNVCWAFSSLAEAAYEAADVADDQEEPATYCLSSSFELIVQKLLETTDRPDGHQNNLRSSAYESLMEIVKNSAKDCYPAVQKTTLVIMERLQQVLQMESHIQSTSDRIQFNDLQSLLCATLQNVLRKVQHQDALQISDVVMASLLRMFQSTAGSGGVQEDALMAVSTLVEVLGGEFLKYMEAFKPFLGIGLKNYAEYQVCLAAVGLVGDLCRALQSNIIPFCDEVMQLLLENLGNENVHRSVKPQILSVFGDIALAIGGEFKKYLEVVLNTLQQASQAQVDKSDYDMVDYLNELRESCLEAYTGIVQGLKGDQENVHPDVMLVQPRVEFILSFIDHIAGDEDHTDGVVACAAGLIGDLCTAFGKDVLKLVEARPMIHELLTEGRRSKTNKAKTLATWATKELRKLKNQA
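FRET biosensor (snurportin 1 IBB flanked by EYFP and cerulean), 50 nM, with compound 5 min, then 0.125 microM importin beta in PBS, 1 mM DTT, 0.02% Tween-20, 0.1% BSA. CFP/YFP ratio read after 45 min at room temperature; pre-read flags interference.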
miR-21 FLuc: miR-21 reporter, rising signal; AID 2288; 340,000 tested, under 10 active; HeLa miR-21 FLuc reporter, luciferase, 48 h; Potency, µM (doses to about 38.3 µM), for inactives: at the highest dose reporter change, positive = more light; active = well fitted rising curve with a large enough effect; inconclusive = small, poorly fitted or top-dose-only effect; inactive = no such curve, though single readings can be large or run the other way;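 further: % of control where 0% means no effect; miR-21 action dims this reporter so a rising signal means less miR-21 action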
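HeLa miR-21-FLuc reporter line, endogenous miR-21; 2000 cells/well in DMEM/10% FBS; compound titration up to ~40uM final, 48 h, 37 degree Celsius; luciferase detection reagent, 15 min lysis, CCD luminescence.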
* marks the source's active call; other numbers are inactive results; ? = inconclusive; . = no result given. These rows are one share of the data. The share of hits here may be higher or lower than overall.

SMILES	Rango dissoc inh	GLA inh pH 4.5	Rango complex inh	miR-21 FLuc
CN(C)/C=C(/C(=O)c1ccccc1Cl)S(=O)(=O)c1ccccc1	10.0%	.	-2.4%	.
CCOc1ncccc1C(=O)OCC(=O)Nc1cc(C(=O)OC)ccc1C(=O)OC	.	-16.4	.	-3.0%
COc1ccc(C2NC(=O)NC3=C2C(=O)CCC3)cc1 (stereo unspecified)	23.6%	.	0.5%	-2.5%
COc1cccc(OC)c1C(=O)NC(=O)Nc1c(F)cc(F)cc1F	-13.6%	-7.2	5.8%	5.5%
COC(=O)c1ccccc1NC1c2ccccc2C(=O)N1c1cccnc1 (stereo unspecified)	0.7%	-2.3	0.0%	-11.6%
O=C(NC1CC2CCCC(C1)N2C(=O)Nc1ccccc1)c1ccccc1 (stereo unspecified)	-19.3%	.	-0.7%	-0.6%
N/C(=N\NC(=O)c1ccccc1Cl)c1cc2ccccc2oc1=O	2.9%	-5.2	1.3%	3.1%
c1ccc(-c2nc(N3CCCCCC3)c3ccccc3n2)nc1	11.3%	3.1	0.8%	?
CC(=O)c1ccc(OC(C)C(=O)NCC2(N3CCOCC3)CCCCC2)cc1 (stereo unspecified)	-2.4%	.	-1.3%	.
CCOc1ccc2nc(SCC(=O)NCc3ccc(S(N)(=O)=O)cc3)[nH]c2c1	-11.0%	.	-0.4%	-1.0%
COc1ccc(C(C(N)=O)c2ncc(C(F)(F)F)cc2Cl)cc1OC (stereo unspecified)	0.1%	-0.5	-1.2%	-1.1%
CSc1nsc(/C=C/Nc2ccc(C(=O)O)cc2)c1C#N	?	0.0	?	-0.5%
Cc1cc2ncn(S(=O)(=O)c3ccc(S(=O)(=O)N4CCCCCC4)cc3)c2cc1C	4.7%	.	3.1%	.
COc1ccc(OC/C(O)=C(\C#N)c2nc3ccccc3[nH]2)cc1	0.4%	1.4	?	-3.4%
Cc1cccc2cc(/C=C/C(=O)c3ccco3)c(Cl)nc12	16.0%	2.3	-2.6%	1.3%
CC1CCCC(C)N1S(=O)(=O)c1ccc(NC(=O)c2ccccc2C(=O)N2CCOCC2)cc1 (stereo unspecified)	-1.5%	-4.0	?	-2.4%
c1ccc(-n2nnnc2-n2cnc3ccccc32)cc1	-6.4%	9.5	-0.2%	-1.2%
O=C(NCCc1csc(-c2cccnc2)n1)c1ccc(Cl)cc1	-20.7%	0.1	1.4%	-3.9%
CS(=O)(=O)Nc1ccc(-c2cn3c(n2)SCC3)cc1	1.8%	.	-5.0%	-19.1%
CN(CC(=O)Nc1ccc(F)cc1)C(=O)CCc1nc2sc3c(c2c(=O)[nH]1)CCCC3	-18.7%	.	?	.
O=C(NCc1cccs1)C1(S(=O)(=O)c2ccccc2)CC=CC1	-7.5%	.	2.8%	0.8%
CCNc1ccc(C(=O)OCC)cc1NC(=O)c1cccc(S(=O)(=O)N2CCOCC2)c1	0.7%	-11.9	0.0%	-10.6%
CC(=O)N1CC(C)Oc2ccc(S(=O)(=O)NC(CC(=O)O)c3ccc(C)cc3C)cc21 (stereo unspecified)	-11.5%	.	-0.2%	-3.1%
CCC(C)N(C(=O)COC(=O)c1cn(CC)c2nc(C)ccc2c1=O)C1CCS(=O)(=O)C1 (stereo unspecified)	-19.3%	4.2	-1.6%	-4.9%
CCc1c(C)c(C#N)c2nc3ccccc3n2c1NC	?	.	?	0.0%

(further entries)
SMILES	Rango dissoc inh	GLA inh pH 4.5	Rango complex inh	miR-21 FLuc
O=C(CSc1ccccn1)N/N=C/c1ccccc1[N+](=O)[O-]	0.4%	-3.3	-3.8%	-30.6%
CCOC(=O)N1CCN(S(=O)(=O)c2ccc(OC)c(Cl)c2)CC1	1.3%	-2.0	-1.4%	-10.2%
c1ccc(CN2CCC(Nc3nc(-c4cccnc4)nc4ccccc34)CC2)cc1	0.5%	-11.8	0.3%	17.4%
CCOc1c(Cl)cc(/C=N/NC(N)=S)cc1OC	0.5%	0.9	0.3%	-1.1%
COc1ccc(NS(=O)(=O)c2ccc(Cl)c(N)c2)cc1Br	-14.9%	0.3	4.5%	1.7%
Cc1ccc(C(=O)NCc2ccco2)cc1S(=O)(=O)Nc1cccc(Cl)c1	-16.2%	2.7	-1.1%	1.3%
O=C1CN(c2nc3ccccc3n3cnnc23)CC(=O)N1CCc1ccccc1	-2.2%	4.4	-0.6%	-0.6%
C/C=C1\COC(C(=O)NCc2ccncc2)(C(F)(F)F)C=C1C=C1CCCCC1 (stereo unspecified)	-0.2%	.	1.0%	.
Cc1cc(OCC(=O)NCCN2CCOCC2)cc(C)c1Br	0.3%	0.0	2.8%	-5.0%
COc1ccc(CN2CCOCC2)cc1OC	1.4%	-2.2	1.0%	-2.8%
O=C(NCCc1ccccc1)c1ccc(NC(=O)C2CCCCC2)cc1	0.0%	.	0.5%	.
COc1cc(CNCc2ccccn2)ccc1OCc1cccc(Cl)c1	10.8%	-13.2	1.5%	7.4%
COc1cccc(NC(=O)c2ccc3c(c2)N(CC(=O)N2CCCCC2)C(=O)C(C)(C)O3)c1	18.2%	-7.0	0.3%	-5.7%
CC(=O)N1CCN(c2ccc(NC(=O)c3ccc(N4CCCC4)c([N+](=O)[O-])c3)cc2Cl)CC1	-0.3%	-4.7	0.3%	-8.7%
Cn1c(=O)c2c(nc(NCc3ccc4c(c3)OCO4)n2Cc2ccccc2F)n(C)c1=O	0.0%	-1.7	3.9%	-12.3%
COc1ccccc1N(C(C)=O)C1SC(=O)N(c2ccccc2)C1=O (stereo unspecified)	0.3%	10.0	0.5%	0.0%
COCCNC(=O)Cn1nc(-c2ccc(Cl)cc2)c2ccccc2c1=O	0.3%	.	-0.7%	4.8%
C/C(=N/Nc1nc(-c2ccc(Cl)cc2)cs1)c1cccs1	2.4%	4.7	1.2%	-20.3%
COc1ccc(NC(=O)CS(=O)(=O)c2cn(CC(=O)N3CCOCC3)c3ccccc23)cc1	-5.0%	6.8	-3.0%	-3.5%
COc1ccc(-c2csc(NC(=O)Cc3ccccc3F)n2)cc1OC	-7.1%	.	-3.1%	28.8%
CCCCn1c(SCc2c(C)noc2C)nc2cc(S(N)(=O)=O)ccc21	-0.1%	2.9	5.5%	-25.0%
Cc1ccc(-n2c(=O)c3c(C)c(C)sc3n(Cc3cc(=O)n4ccccc4n3)c2=O)cc1C	-3.4%	-1.2	0.3%	-10.5%
COCC(C)NC(=O)CSc1nc2ccccc2c(=O)n1CCc1ccc(S(N)(=O)=O)cc1 (stereo unspecified)	12.2%	.	2.3%	4.6%
Cc1ccc(Nc2n[nH]c(=S)s2)cc1F	1.2%	.	-1.2%	.
CC(=O)Cc1cc2cc([N+](=O)[O-])ccc2oc1=O	-10.6%	-2.7	0.2%	-1.9%

An excerpt of these results, with values under each structure.
Under each structure: Rango dissoc inh	GLA inh pH 4.5	Rango complex inh	miR-21 FLuc
> CCCCn1c(SCc2c(C)noc2C)nc2cc(S(N)(=O)=O)ccc21
  -0.1%	2.9	5.5%	-25.0%
> O=C(NCCc1ccccc1)c1ccc(NC(=O)C2CCCCC2)cc1
  0.0%	.	0.5%	.

Further structures
SMILES	Rango dissoc inh	GLA inh pH 4.5	Rango complex inh	miR-21 FLuc
CC(C)CC(=O)N1CCN(C(=O)CCC2CCCC2)CC1	1.4%	-0.2	-5.2%	-6.1%
CCC(C)C(NC(=O)OC(C)(C)C)C(=O)NC(Cc1ccccc1)C(=O)OC (stereo unspecified)	19.0%	-1.0	1.2%	-2.1%
Cc1ccc(NC(=O)N(O)C2CCCCC2C#N)cc1 (stereo unspecified)	0.3%	.	-1.6%	.
N#Cc1ccccc1OCC(=O)Nc1nnc(C2CC2)s1	-2.5%	.	?	.
NS(=O)(=O)c1ccc(CCNC(=O)CSc2ccccc2)cc1	6.7%	0.7	-0.2%	-2.8%
Cc1c(C(=O)N2CCC(Cc3ccccc3)CC2)cccc1[N+](=O)[O-]	16.9%	4.2	-1.7%	3.8%
C=CCn1c(Cc2cccs2)nnc1SCC(=O)c1cccc(Br)c1	-5.1%	-0.4	-3.8%	-4.9%
COc1ccc(CCNC(=O)CSCc2ccc([N+](=O)[O-])cc2)cc1OC	-5.3%	3.5	2.1%	-12.6%
CN(C)CCNc1nc2c(c(=O)[nH]c(=O)n2C)n1CCCc1ccccc1	9.6%	-1.5	2.3%	-5.7%
CC1=NCCN1CCNC(=O)Nc1ccc(F)cc1	-19.6%	-1.9	-2.8%	0.4%
COC(=O)c1ccc(C(=O)OC)c(NC(=S)N2CCN(c3ccc(F)cc3)CC2)c1	1.8%	-6.8	-1.4%	-10.9%
CN1C(=S)SC(N(O)C(=O)NC2CCCCC2)C1(C)C (stereo unspecified)	-8.4%	2.0	0.2%	-10.6%
O=C(Nc1cccnc1)c1ccc(NS(=O)(=O)c2cc([N+](=O)[O-])ccc2Cl)cc1	8.5%	-2.3	0.4%	-1.1%
CC(C)(c1ccccc1)c1ccc(OCCCNCCO)cc1	14.5%	-3.3	1.2%	-1.6%
COCCSc1ccccc1C(=O)Nc1ccccc1C(C)C	-7.7%	4.9	-1.4%	-2.9%
Cc1nc2c(N=Nc3ccccc3F)c(N)nn2c(N)c1C#N	7.1%	-7.4	-3.1%	-8.9%
COCCN(C(=O)COC(=O)/C(=C/c1ccccc1)NC(C)=O)c1c(N)n(Cc2ccccc2)c(=O)[nH]c1=O	-1.2%	.	1.0%	0.4%
CN(C)C(=O)c1ccc(Nc2ncnc3sc4c(c23)CCCCC4)cc1	1.5%	.	0.9%	-17.2%
Cc1ccccc1C(=O)N1CCN(c2ccc(NC(=O)c3ccc4c(c3)OCO4)cc2)CC1	-21.9%	-15.0	-2.8%	?
CCC(/C=N/NC(=O)C(=O)N/N=C/C(CC)CC)CC	9.1%	2.6	1.7%	-1.8%
CCCOc1ccccc1/C=C(\C#N)C(=O)Nc1cccnc1	-16.7%	0.1	-1.8%	-60.8%
CC(C)NC(=O)c1onc(CSc2cccc3ccccc23)c1C(=O)O	-0.1%	-0.3	-0.6%	6.2%

Record cards, from the list above:
`O=C(Nc1cccnc1)c1ccc(NS(=O)(=O)c2cc([N+](=O)[O-])ccc2Cl)cc1` as listed: Rango dissoc inh: 8.5%; GLA inh pH 4.5: -2.3; Rango complex inh: 0.4%; miR-21 FLuc: -1.1%
`CC(C)NC(=O)c1onc(CSc2cccc3ccccc23)c1C(=O)O` as listed: Rango dissoc inh: -0.1%; GLA inh pH 4.5: -0.3; Rango complex inh: -0.6%; miR-21 FLuc: 6.2%

A second format for part of the listing above.
SMILES: CN1C(=S)SC(N(O)C(=O)NC2CCCCC2)C1(C)C (stereo unspecified)
  Rango dissoc inh: -8.4%	GLA inh pH 4.5: 2.0	Rango complex inh: 0.2%	miR-21 FLuc: -10.6%

SMILES: O=C(Nc1cccnc1)c1ccc(NS(=O)(=O)c2cc([N+](=O)[O-])ccc2Cl)cc1
  Rango dissoc inh: 8.5%	GLA inh pH 4.5: -2.3	Rango complex inh: 0.4%	miR-21 FLuc: -1.1%
